Screens: PubChem, National Center for Advancing Translational Sciences (NCATS)
Rango release inh = inhibitors of RanGTP-induced Rango-importin beta complex dissociation. O95149+P62826. Biochemical FRET Rango-importin beta, RanGTP-induced dissociation. Potency, µM (doses to about 46.1 µM), for the others: top-dose activity change, negative = inhibition. hit rate 0.071% among 340,000. AID 540253; active means falling FRET ratio curve, often poorly fitted, with flat reads before Ran was added; inconclusive means other falling curves, or compound fluorescence or quenching; inactive means flat or rising ratio curve;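 further: potency means the concentration at half of the fitted maximal effect; % of control where 0% means no effect; nearly all actives have a fitted effect of over 45% in size; -100% = wells without RanGTP and RCC1; the record marks most hits as doubtful in a second field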
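Quantitative HTS using a FRET biosensor: 0.1 uM Rango, 0.25 uM importin beta, 0.6 uM Ran, 2 mM GTP, 0.2 uM RCC1 final, PBS with DTT, Tween-20 and BSA. Post-read taken 45 min after Ran addition.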
GLA inh pH 4.5 = inhibitors of human alpha-galactosidase A at pH 4.5; activity change, negative = inhibition, % at 105 µM; purified enzyme, 4-MU-alpha-Gal fluorescence, pH 4.5; P06280; 230,000 tested, under 10 active; inconclusive = small, poorly fitted or top-dose-only inhibition, or a rising curve; inactive = flat fitted curve, though single readings scatter; no compound was filed as active;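 further: 0% = full activity with enzyme and -100% = basal without enzyme; dose as in the result columns while the protocol names 77 µM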
miR-21 reporter = miR-21 reporter, rising signal | 340,000 tested, under 10 active | HeLa miR-21 FLuc reporter, luciferase, 48 h | Potency, µM (series often up to 38.3 µM), for inactives: at the highest dose reporter change, positive = more light; active = well fitted rising curve with a large enough effect; inconclusive = small, poorly fitted or top-dose-only effect; inactive = no such curve, though single readings can be large or run the other way;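 further: % of control where 0% means no effect; miR-21 action dims this reporter so a rising signal means less miR-21 action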
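Luminescence from a firefly luciferase reporter carrying a miR-21 binding site downstream, stably expressed under a CMV promoter in HeLa cells that make miR-21 endogenously, reports miRNA modulation after 48 h compound exposure up to approximately 40uM final.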
Rango complex inh = prevents formation of the Rango-importin beta complex; Q14974; Rango CFP/YFP FRET sensor + importin beta, 45 min; Potency, µM (doses to about 92.2 µM), without a hit: at the top dose inhibition of complex formation; hit rate 0.031% among 340,000; AID 540263; active = rising FRET ratio curve, often small or poorly fitted; inconclusive = mostly compound fluorescence or quenching in the first reads; inactive = flat curves in all reads;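 further: potency means the concentration at half of the fitted maximal effect; 0% = DMSO wells and 100% = buffer wells lacking importin beta; nearly all actives have a fitted effect of over 15% in size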
Target sequence (Q14974 whole entry, looked up): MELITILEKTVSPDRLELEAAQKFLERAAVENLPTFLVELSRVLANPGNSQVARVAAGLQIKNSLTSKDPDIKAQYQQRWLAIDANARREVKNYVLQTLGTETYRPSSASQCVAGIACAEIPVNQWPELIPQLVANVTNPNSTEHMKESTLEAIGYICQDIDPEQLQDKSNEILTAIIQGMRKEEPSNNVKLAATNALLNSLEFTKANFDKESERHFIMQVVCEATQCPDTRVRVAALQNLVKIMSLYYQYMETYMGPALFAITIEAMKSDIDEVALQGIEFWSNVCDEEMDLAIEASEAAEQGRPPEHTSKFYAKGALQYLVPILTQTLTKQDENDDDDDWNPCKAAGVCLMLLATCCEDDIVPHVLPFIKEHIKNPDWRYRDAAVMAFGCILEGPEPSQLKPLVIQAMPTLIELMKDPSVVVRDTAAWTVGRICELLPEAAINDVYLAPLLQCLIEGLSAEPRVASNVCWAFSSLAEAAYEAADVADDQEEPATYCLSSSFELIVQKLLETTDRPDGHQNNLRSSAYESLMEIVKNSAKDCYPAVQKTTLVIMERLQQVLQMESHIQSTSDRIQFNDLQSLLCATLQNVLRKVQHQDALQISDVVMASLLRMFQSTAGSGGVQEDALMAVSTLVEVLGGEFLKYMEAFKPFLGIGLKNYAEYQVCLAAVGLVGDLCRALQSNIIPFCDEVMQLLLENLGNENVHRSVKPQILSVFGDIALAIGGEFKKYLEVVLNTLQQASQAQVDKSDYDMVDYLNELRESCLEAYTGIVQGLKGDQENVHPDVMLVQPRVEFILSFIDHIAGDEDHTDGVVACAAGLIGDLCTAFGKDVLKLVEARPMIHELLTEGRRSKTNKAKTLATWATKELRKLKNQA
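FRET biosensor (snurportin 1 IBB flanked by EYFP and cerulean), 50 nM, with compound 5 min, then 0.125 microM importin beta in PBS, 1 mM DTT, 0.02% Tween-20, 0.1% BSA. CFP/YFP ratio read after 45 min at room temperature; pre-read flags interference.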
An asterisk follows results filed as active; ? = inconclusive; . = not tested or not shown; & = joins results of further samples.

SMILES | Rango release inh | GLA inh pH 4.5 | miR-21 reporter | Rango complex inh
CCN(CC1COc2ccccc2O1)C(=O)CN1C(=O)NC(C)(c2ccc(C)cc2)C1=O (stereo not given) | -2% | . | . | -0.9%
Cc1cccc(Oc2ccc(NC(=O)c3ccccc3C(=O)O)cc2)c1C | -6% | -3 | 0% | 3.7%
Cc1nnc(SCC(=O)NC2CC2)n1CC1CCCO1 (stereo not given) | 5% | 0 | 0% | -2.6%
NS(=O)(=O)c1ccc(CCNC(=O)CN2CCN(c3ccccc3F)CC2)cc1 | 12% | -11 | 0% | -0.8%
O=c1cc(CSc2ccccc2)[nH]c2ccccc12 | 17% | . | 4% | 3.0%
Cc1ccccc1NS(=O)(=O)c1cc2c3c(c1)C(C)C(=O)N3CCC2 (stereo not given) | 25% | . | 2% | 0.1%
CC12CCC(C(=O)N(CSC(=S)N/N=C\c3ccccc3Cl)C1=O)C2(C)C (stereo not given) | 29% | 0 | -5% | 4.6%
CCOC(=O)Nc1ccc2ncn(C)c(=O)c2c1 | 12% | -9 | -2% | -3.9%
Cc1cc(C)cc(NS(=O)(=O)c2ccc(NC(=S)Nc3ccccc3)cc2)c1 | 1% | 4 | -8% | 1.7%
C=CCn1c2ccccc2c2nnc(SCc3ccc4nonc4c3)nc21 | 9% | 0 | -5% | 1.4%
O=C1CCC(C(=O)N2CCCC(Nc3ccc(F)cc3)C2)=NN1 (stereo not given) | 8% | . | 1% | 1.3%
CN(CC(=O)Nc1ccccc1Br)C(=O)c1cccn1C | -16% | . | . | -3.2%
O=[N+]([O-])c1cc(Cl)cc(/C=N/n2cnnc2)c1O | 19% | -3 | -3% | 1.6%
CC1CCN(C2CC(=O)N(c3ccccc3)C2=O)CC1 (stereo not given) | 8% | -15 | -1% | 0.2%
O=C(Oc1ccc(C(=S)N2CCOCC2)cc1Cl)c1ccccc1F | -4% | . | -2% | 0.1%
O=C(c1ccc(Cl)cc1)C1CCN(C(=O)N2CCOCC2)CC1 | -3% | 0 | 2% | -4.2%
COc1cc(OC)c(C(=O)CCCN2CCCC2)c(OC)c1 | -12% | -4 | -7% | 3.3%
Nc1ccc2c(c1)C(=O)c1ccccc1C2=O | -11% | . | . | 3.8%
C=CCNC(=O)C1CC(=O)N(c2ccc(OCC(=O)Nc3ccc(OC)cc3)cc2)C1 (stereo not given) | -1% | -1 | -1% | 1.2%
CCOC(=O)c1ccc(NC(=O)CSc2nncn2-c2cccnc2)cc1 | -16% | . | 3% | 9.7%
CCCCCOc1ccccc1C(=O)NCCC(=O)O | -6% | -17 | -6% | -1.0%
O=C(c1ccc2c(c1)OCO2)C1CCCN(C2CCN(CCc3ccccc3)CC2)C1 (stereo not given) | 1% | -6 | -13% | -3.6%
C=C(C)CN=C1SC(C(=O)Nc2sc3c(c2C(=O)OC)CCC3)C(N)=C1C(N)=O (stereo not given) | -17% | -11 | -4% | ?
COc1ccc(/C=C2\SC(=NCc3ccccc3)N(Cc3ccccc3)C2=O)cc1OC | -18% | -16 | -12% | 2.4%
CN(C)C(=N)c1n[nH]nc1SCc1ccccc1 | -4% | 3 | -3% | 2.3%
CC(NC(=O)C1CSC2(C)CCC(=O)N12)c1ccccc1Cl (stereo not given) | 7% | . | . | 2.3%
COc1ccc(C(=O)/C=C/c2cccs2)c(OC(=O)c2cccc([N+](=O)[O-])c2)c1 | 25% | -17 | -21% | ?
O=C(c1cc2ccccc2oc1=O)N(Cc1cccs1)Cc1cccs1 | 4% | -8 | -3% | -2.0%
COc1cccc(CNC(=O)N[C@@H](C)C(=O)O)c1 | -6% | 2 | -1% | 0.1%
Cc1ccc(S(=O)(=O)CCC(=O)OCC(=O)NC(C)c2ccc(F)cc2)cc1 (stereo not given) | -6% | . | . | -0.6%
O=C(NC1CCCCC1)c1ccc([N+](=O)[O-])o1 | 13% | . | 11% | 0.6%
CCc1nnc(NC(=O)CN2CCN(c3ccccc3F)CC2)s1 | 0% | -27 | 0% | ?
CN(Cc1ccon1)C(=O)C1CCC(=O)N(Cc2ccc(Cl)cc2)C1 (stereo not given) | 11% | . | -3% | 0.0%
CN(C)c1ccc(NC(=O)CSc2nnc(C3CCCCC3)n2N)cc1 | -6% | . | -11% | 4.1%
CCN(CC)CCN(C(=O)c1cccc([N+](=O)[O-])c1)c1nc2ccc(OC)cc2s1 | 2% | 1 | -3% | 4.2%
Cc1c(NC(=O)COc2ccccc2Cl)c(=O)n(-c2ccccc2)n1C | 3% | . | . | 0.6%
COC(=O)c1ccc(C(=O)OC)c(NC(=S)N2CC(C)CC(C)C2)c1 (stereo not given) | -6% | -8 | -23% | ?
CCCCOc1ccc(CSC(CC(=O)O)C(=O)O)cc1 (stereo not given) | 21% | -1 | 2% | 0.3%
Nc1ccc(N2CCN(C(=O)c3cccs3)CC2)cc1 | -4% | 5 | -10% | ?
Cc1cccc(NC(=O)N2CCC(NC(=O)c3ccco3)CC2)c1 | -20% | 2 | -1% | 3.3%

By substructure: the entries above with an NH in an aromatic ring.
SMILES | Rango release inh | GLA inh pH 4.5 | miR-21 reporter | Rango complex inh
O=c1cc(CSc2ccccc2)[nH]c2ccccc12 | 17% | . | 4% | 3.0%
CN(C)C(=N)c1n[nH]nc1SCc1ccccc1 | -4% | 3 | -3% | 2.3%

Quoted from the entries so far, four compounds:
SMILES | Rango release inh | GLA inh pH 4.5 | miR-21 reporter | Rango complex inh
CCN(CC1COc2ccccc2O1)C(=O)CN1C(=O)NC(C)(c2ccc(C)cc2)C1=O (stereo not given) | -2% | . | . | -0.9%
Cc1cccc(Oc2ccc(NC(=O)c3ccccc3C(=O)O)cc2)c1C | -6% | -3 | 0% | 3.7%
Cc1nnc(SCC(=O)NC2CC2)n1CC1CCCO1 (stereo not given) | 5% | 0 | 0% | -2.6%
NS(=O)(=O)c1ccc(CCNC(=O)CN2CCN(c3ccccc3F)CC2)cc1 | 12% | -11 | 0% | -0.8%

The results go on:
SMILES | Rango release inh | GLA inh pH 4.5 | miR-21 reporter | Rango complex inh
NNC(=O)c1ccc(COc2ccc([N+](=O)[O-])cc2)o1 | 11% | 4 | -6% | 5.3%
CCOc1ccccc1C=NNC(=O)C1CC1 | 13% | . | . | -0.6%
COc1ccc(C2=C(Nc3ccc(C)cc3)c3ccccc3C2=O)cc1 | 28% | 3 | -20% | 2.2%
CC(=O)c1cc(CC(=O)N2CCc3c([nH]c4ccccc34)C2c2ccccn2)cs1 (stereo not given) | -10% | -6 | -11% | 2.2%
COC(=O)c1cccc(N2C(=O)C3CC=CCC3C2=O)c1 (stereo not given) | 4% | 5 | 2% | -0.4%
COc1ccc(-c2nn(C)c(=O)c3ccccc23)cc1CNC(=O)NC1CCCCC1 | . | -1 | -4% | .
CCCCc1ccccc1NC(=S)NC1CCCC1 | 13% | . | 21% | 0.6%
Cc1c(CC(=O)NC(C)C)c(=O)oc2cc3c(cc12)CCC(C)(C)O3 | 23% | . | -55% | -1.0%
O=C(NCC(=O)N1CCCC1)c1ccc(Br)cc1 | 11% | . | -25% | 4.5%
COC(=O)C1=C(C(=O)OC)[C@@H]2N(C)c3ccccc3[C@@]23C[C@@H](C(=O)OC)N(C(=O)c2ccc(Br)cc2)C3=N1 | -5% | -2&1 | ? | -0.8%
CCOC(=O)c1[nH]c(C)c(/C(O)=C2\C(=O)C(=O)N(CCCn3ccnc3)C2c2ccncc2)c1C (stereo not given) | 1% | 6 | 16% | 5.9%
COCCN(CCOC)Cc1c(O)ccc2c3c(c(=O)oc12)CCC3 | ? | ? | -3% | ?
COc1cccc(NC(=O)c2cc(Cl)nnc2Cl)c1 | 0% | 4 | 12% | 1.0%
CCCCOc1ccc(S(=O)(=O)N2CCCCCC2)cc1 | 8% | -7 | -18% | 4.2%
O=C(Cc1ccccc1)NNC1=NS(=O)(=O)c2ccccc21 | -3% | 2 | 1% | 0.4%
COc1cccc2cc(C(=O)NCc3ccccc3)c(=N)oc12 | -10% | . | 2% | -1.9%
COc1cccc(C(=O)NC2CCN(CC(=O)Nc3cccc(C)c3C)CC2)c1 | -2% | 3 | 0% | ?
CCOC(=O)N1CCC(N2CCCC(C(=O)c3ccccc3OC)C2)CC1 (stereo not given) | 3% | -1 | -2% | -2.8%
O=c1cc(C(F)(F)F)[nH]c2c(OC(F)(F)F)cccc12 | 1% | -2 | 6% | -2.6%
CCCCC(=O)Nc1cccc(-c2ccc3nncn3n2)c1 | -9% | . | 0% | 0.1%
CCOP(=O)(OCC)C(Nc1cccc(C(F)(F)F)c1)c1ccc(C)cc1 (stereo not given) | -17% | -3 | -2% | -0.4%
O=C(c1cnc2sccn2c1=O)N1CCN(c2ccccc2Cl)CC1 | 24% | 6 | -8% | -1.5%
O=C1CCSc2ccc(Cl)cc2N1Cc1ccccc1 | 6% | 4 | -3% | 0.3%
O=C(CSc1nncc(=O)[nH]1)NC1CCCCC1 | 20% | . | 0% | -0.2%
COc1ccccc1/C=C1\C(=O)Nc2ccccc21 | ? | . | 2% | 5.5%
COc1cc(C=O)c(Br)cc1OC1CCCC1 | -18% | 2 | -7% | -3.7%
COc1cc(N(C)C)c([N+](=O)[O-])cc1C(=O)N1CCN(Cc2ccccc2)CC1 | -4% | -1 | 0% | -0.7%
O=C(O)C1CC(=O)N(c2ccc(OCc3c(F)cccc3Cl)cc2)C1 (stereo not given) | 16% | 8 | 8% | 2.0%
CCOC(=O)c1sc(=S)n(-c2ccccc2OC)c1N | 15% | -16 | -9% | 4.6%
O=C(NCc1ccccn1)C1CCN(S(=O)(=O)c2ccccc2C(F)(F)F)CC1 | 8% | . | . | -0.9%
COC(=O)[C@]1(Cc2ccccc2)N[C@H](c2ccc(-c3ccc(OC)cc3)cc2)[C@@H]2C(=O)N(C)C(=O)[C@@H]21 | -7% | . | . | 0.5%
O=C(NNC(=S)NCc1ccccc1)c1ccc(OC(F)F)cc1 | -2% | -6 | -5% | -0.2%
Cc1c(NC(=O)C(C)OC(=O)c2cccnc2)c(=O)n(-c2ccccc2)n1C (stereo not given) | 1% | 7 | 0% | 0.0%
Cc1ccc(OCCN2C(=O)NC3(CCc4ccccc4C3)C2=O)cc1 (stereo not given) | -8% | -8 | -11% | -3.6%
COC(=O)c1cc(NC(=O)c2cc(-c3ccc(OC)cc3)oc2C(F)(F)F)ccc1N1CCOCC1 | -6% | -9 | 12% | 0.4%
CC1CCC(NS(=O)(=O)c2ccc(Cl)s2)CC1 (stereo not given) | 9% | . | . | 0.1%
COC(=O)c1cnc(Oc2ccc(NC(=O)NC(=O)c3c(F)cccc3F)cc2)cc1C(F)(F)F | -8% | -1 | 0% | -3.4%
Cc1nnc(NC(=O)c2ccccc2Br)s1 | 1% | 2 | -27% | 2.7%
CCCCc1cc(=O)oc2cc(OCC(=O)Nc3ccccn3)ccc12 | -13% | . | -27% | 0.1%
Cc1nc2ccccn2c1/C(O)=C1\C(=O)C(=O)N(CCCn2ccnc2)C1c1ccncc1 (stereo not given) | -10% | -6 | 0% | 2.5%
COC(=O)c1ccccc1NC(=O)Nc1ncccc1C | 17% | 19 | -2% | -2.8%
COc1ccccc1/C=C/C(=O)NCC(=O)N1CCC(N(C)C2CCCC2)CC1 | 5% | -11 | -1% | 4.5%
C#CCNc1cc(-c2ccccc2)nc2ncnn12 | -8% | 4 | -37% | -1.1%
O=C(NCCC(=O)N(Cc1ccco1)Cc1cccs1)c1ccccc1Cl | -4% | . | . | ?
CN(C)C(=O)c1c(NC(=O)c2ccccc2)sc2c1CCC2 | 2% | . | -11% | -6.9%
CCN(C(=O)c1ccc2c(=O)n3c(nc2c1)CCCCC3)c1ccccc1C | -10% | . | 3% | 2.3%
CC(C)(C)n1nnnc1C(c1cccs1)N1CCCc2ccccc21 (stereo not given) | 1% | -4 | 0% | -0.5%
COc1cc(C2C(C(=O)c3cc4ccccc4o3)=C(O)C(=O)N2CCN2CCOCC2)ccc1OCCC(C)C (stereo not given) | -2% | . | -9% | -2.9%
CCOC(=O)c1nn(-c2ccccc2)c(=O)cc1OCC(=O)Nc1cc(C)ccc1OC | 7% | . | . | 1.9%

The list is partial; count on the stated rates, not on these rows.
